Source: PubChem BioAssay (National Center for Advancing Translational Sciences (NCATS))
miR-21 reporter = raises the signal of a miR-21 reporter; HeLa miR-21 FLuc reporter, luciferase, 48 h; Potency, µM (titrated, usually from 38.3 µM), without a hit: at the highest dose reporter change, positive = more light; AID 2288; 340,000 tested, under 10 active; active = well fitted rising curve with a large enough effect; inconclusive = small, poorly fitted or top-dose-only effect; inactive = no such curve, though single readings can be large or run the other way;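 further: % of control where 0% means no effect; miR-21 action dims this reporter so a rising signal means less miR-21 action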
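HeLa miR-21-FLuc reporter line, endogenous miR-21; 2000 cells/well in DMEM/10% FBS; compound titration up to ~40uM final, 48 h, 37 degree Celsius; luciferase detection reagent, 15 min lysis, CCD luminescence.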
* hit, by the source's call; ? = inconclusive. An excerpt. The share of hits here may be higher or lower than overall.

miR-21 reporter	canonical_smiles
20%	COc1cc(Nc2nc(-c3ccc(OC)c(OC)c3)nc3ccccc23)cc(OC)c1
-7%	CCOc1ccc(NC(=O)c2cc3c(-c4ccccc4F)nn(C)c3s2)cc1
15%	Cc1ccc2[nH]cc(C(c3ccccc3)c3cccs3)c2c1 (centres undefined)
-4%	CCn1c(=O)n(-c2ccc3c(c2)OCO3)c2nc(-c3cc(OC)ccc3OC)nc(C(N)=O)c21
2%	CCCCOc1ccc(C(=O)N2CCCCC2CCN2CCOCC2)cc1 (centres undefined)
-1%	Cc1nnsc1C(=O)Oc1ccccc1Cl
3%	N#CC(C#N)=C1NC(N)=C(C#N)C(c2ccccc2)=C1C#N
11%	CC1CCCN(CCCNC(=O)c2ccc3c(c2)N(Cc2cccc(Cl)c2)C(=O)c2ccccc2S3(=O)=O)C1 (centres undefined)
-20%	CCOc1ccccc1NC(=O)Cn1nnc(C(=O)NCc2ccc(F)cc2)c1N
-10%	CCOc1cc(C2C(C(=O)OC)=C(C)NC3=C2C(=O)c2ccccc23)ccc1O (centres undefined)
1%	CCCn1c(=N)c(C(=O)NC2CCCCC2)cc2c(=O)n3cc(C)ccc3nc21
-52%	CCCNC(=O)COCc1cc(-c2ccc(F)cc2)on1
1%	Cc1ccccc1NC(=O)CCS(=O)(=O)c1cc(Br)cc2c1N(C(=O)C1CC1)CC2
-20%	CCC(C)NC(=O)c1ccc2nc(Cc3ccccc3)oc2c1 (centres undefined)
-3%	Cc1ccccc1-c1nn2c(=O)cc(CN3CCN(C(=O)c4ccc(C(C)(C)C)cc4)CC3)nc2s1
-3%	CC(=O)Nc1ccc(NS(=O)(=O)c2ccc3c(c2)CCCN3C(C)=O)cc1
4%	COc1ccc(OC)c(NC(=O)c2cc(-c3ccc(Cl)s3)nc3ccccc23)c1
0%	CCC(=O)Oc1ccc(C2Nc3ccccc3-c3nnc(SC)nc3O2)cc1 (centres undefined)
15%	CCOc1ccc(CCNC(=O)CCCc2cc(-c3ccc(OCC)cc3)on2)cc1
-1%	COc1ccc(CCC(=O)NCc2ccc3c(c2)CCN3C(=O)c2ccccc2)cc1
-1%	Cc1ccc(-c2[nH]c3c(c2-c2c(-n4cccc4)n(C)c(=O)[nH]c2=O)c(=O)[nH]c(=O)n3C)cc1
-1%	O=C(c1ccccc1)c1ccc2nc(Nc3ccccc3Cl)c3nncn3c2c1
-8%	CCc1ccc(CNC(=O)CCN2C(=O)COc3ccccc32)cc1
-7%	COc1ccc(CCNC(=O)NCc2noc3ccc(C)cc23)c(OC)c1
-44%	CCC(=O)Nc1cccc(C(=O)OCc2cc(=O)n3nc(CC)sc3n2)c1

Reformatted: two of the compounds above
Molecule	miR-21 reporter
Cc1nnsc1C(=O)Oc1ccccc1Cl	-1%
CCCNC(=O)COCc1cc(-c2ccc(F)cc2)on1	-52%

The listing continues.
miR-21 reporter	canonical_smiles
-2%	Cn1c(=O)c2c(SCC(=O)NCC3CCCO3)nc(-c3cccc(F)c3)nc2n(C)c1=O (centres undefined)
10%	O=C(NC1CCCCC1)c1ccc2c(c1)sc1nc(-c3ccc(F)cc3)cn12
?	CCOC(=O)c1ccc(N2C(=O)c3n[nH]c(-c4ccco4)c3C2c2ccc(C(=O)OC)cc2)cc1 (centres undefined)
-1%	O=C(Nc1cccc(-c2nc3cccnc3s2)c1)c1cccc(Br)c1
-7%	Cc1cccc(NC(=O)C2CCN(S(=O)(=O)c3ccc(F)cc3)CC2)c1C
-4%	CC(C)(C)c1ccc(C(=O)NNc2ncnc3c2cnn3-c2ccccc2)cc1
-3%	Cc1cc(=O)n2[nH]c(NC(=O)c3cccc(Cl)c3)nc2n1
10%	CCOc1cccc(NC(=O)C2CC(=O)N(CC)C(=Nc3ccc(F)cc3)S2)c1 (centres undefined)
5%	O=C(NCCc1ccc(Cl)cc1)c1nnc(Cc2ccc(Cl)cc2Cl)o1
?	Cc1ccc(SCc2nc(-c3ccc(C(=O)NCC(C)c4ccccc4)cc3)oc2C)cc1 (centres undefined)
-9%	COc1ccc(CN2COc3ccc4c(-c5ccc(OC)cc5)cc(=O)oc4c3C2)cc1
16%	Cc1ccc(Cn2c(C)c3cnn(CC(=O)NCc4ccccc4)c(=O)c3c2C)cc1
11%	CCOC(=O)c1c(S(=O)(=O)N2CCCC(C(=O)NCc3ccc(Cl)cc3)C2)c(C)n(C)c1C (centres undefined)
1%	CCOc1ccc(-c2cc(-c3nc(-c4cc(OC)c(OC)c(OC)c4)no3)[nH]n2)cc1Cl
24%	Cc1ccc(NCc2cccn2-c2nnc(N3CCC(C(=O)NC(C)C)CC3)s2)cc1
-4%	COc1ccccc1NC(=O)c1sc2nc(C)c(C(=O)Nc3ccc(C)cc3C)c(-c3ccc(C)o3)c2c1N
-9%	COc1ccccc1C1CC(=O)NC(C)=C1C(=O)OC1CCCCCC1 (centres undefined)
-1%	CC(=O)Nc1nonc1-c1nnc(SCc2cccc(Br)c2)n1C
-1%	CCC(Sc1ncc(S(=O)(=O)c2ccc(C)cc2)c(=O)[nH]1)C(=O)Nc1cc(C)ccc1C (centres undefined)
-38%	COc1ccc(CNc2nc3c(-c4ccc(C)cc4)nnn3c3ccccc23)cc1
2%	Cc1nc2cc(C(=O)NCCC3=CCCCC3)ccc2n1-c1ccc(Br)cc1
8%	CC(=O)c1ccc(N2CCN(C(=O)C3CCN(S(=O)(=O)c4ccc(Br)s4)CC3)CC2)cc1
15%	O=C(CSc1nc2c(cnn2-c2ccc(F)cc2)c(=O)[nH]1)Nc1ccc(Br)cc1
-6%	CC(C)NC(=O)C1CCC(Cn2c(=O)c3sccc3n(Cc3ccc(F)cc3)c2=O)CC1 (centres undefined)
15%	Cc1nc(-c2ccc(C)c(N3CCN(C(=O)Nc4ccc(Br)cc4)CC3)c2)no1
21%	CCCCN(C)S(=O)(=O)c1ccc(C(=O)Nc2sc3c(c2C(=O)OCC)CCN(C(C)C)C3)cc1
3%	COc1cccc(CNC(=O)CCC(=O)N2CC(C)Sc3ccccc32)c1 (centres undefined)
4%	Cc1ccc(S(=O)(=O)N2CCc3cc(C(=O)Nc4c(C)cccc4C(C)C)ccc32)cc1
0%	Cc1oc(-c2ccccc2F)nc1CS(=O)(=O)CC(=O)N1CCN(c2cccc(C(F)(F)F)c2)CC1
-5%	COc1cccc(C(=O)Nc2c(C(=O)NC(C)(C)C)oc3ccccc23)c1
5%	Cc1ccc(NS(=O)(=O)c2cc3[nH]c(=O)c(=O)[nH]c3cc2C)cc1Cl
3%	CCOC(=O)c1ccccc1NC(=O)Cn1nnc2sc3c(c2c1=O)CCCC3
-7%	Cc1cc(C)c(Cn2c(C)c(CNCCCc3ccccc3)c(C(=O)O)c2C)c(C)c1
-2%	COc1ccc(-c2noc(-c3ccc(NCc4ccco4)c([N+](=O)[O-])c3)n2)cc1OC
1%	Cc1ccccc1NC(=O)Cn1c(=O)n(CCCCC(=O)NCc2ccccc2Cl)c(=O)c2ccccc21
-23%	Cc1ccc(C)c(CNC(=O)c2ccc3c(c2)nc2n3CCC(C)C2)c1 (centres undefined)
5%	O=C1COc2ccc(-c3cc(-c4ccc(F)cc4)c4c(n3)-c3ccccc3OC4)cc2N1
20%	COc1ccc(N2CCN(C(=O)c3cnc(N4CCOCC4)c4ccccc34)CC2)cc1
17%	Cc1ccc(-c2nnc(Nc3cccc(O)c3)c3ccccc23)cc1S(=O)(=O)NCC1CCCO1 (centres undefined)
0%	Cc1ccc(C(=O)Nc2ccc3oc(-c4ccncc4)nc3c2)c(Cl)c1
0%	Cc1ccc2c(CNC3CCC(C)CC3)c(C(=O)O)n(Cc3cccc(F)c3)c2c1 (centres undefined)
-47%	CC1CCCN(c2ncnc3c2nc2n3CCCCC2)C1 (centres undefined)
2%	O=C(Cc1ccc(-c2ccccc2)cc1)NCCS(=O)(=O)N1CCN(c2ccc(F)cc2)CC1
8%	CCN(CC)c1ccc(C(=O)NCc2ccc3c(c2)CCN3C(=O)c2ccc(F)cc2)cc1
6%	O=c1[nH]c2ccc(NCc3ccc(-c4ccc(F)cc4)o3)cc2[nH]1
-6%	Clc1ccc(CSc2nc(NCCc3ccccc3)c3ccccc3n2)cc1
1%	Cc1nn(C(=O)c2ccccc2F)c(C)c1S(=O)(=O)N1CCOCC1
15%	COc1ccc(S(=O)(=O)NCCc2csc(-c3ccc(F)cc3)n2)cc1
-3%	Cc1cc(C)c(Cn2cnc3nc4c(cc3c2=O)CCCC4)c(C)c1
-1%	CCOC(=O)C(C)NC(=O)c1c2c(nc3ccccc13)C(=O)N(C1CCCCC1)C2 (centres undefined)

Shown field by field: 3 of the compounds above
mol: Cc1ccccc1NC(=O)Cn1c(=O)n(CCCCC(=O)NCc2ccccc2Cl)c(=O)c2ccccc21
  miR-21 reporter: 1%

mol: Cc1ccc(C)c(CNC(=O)c2ccc3c(c2)nc2n3CCC(C)C2)c1 (centres undefined)
  miR-21 reporter: -23%

mol: O=C1COc2ccc(-c3cc(-c4ccc(F)cc4)c4c(n3)-c3ccccc3OC4)cc2N1
  miR-21 reporter: 5%

Retrieved by compound from above (seven):
miR-21 reporter	canonical_smiles
1%	Cc1ccccc1NC(=O)Cn1c(=O)n(CCCCC(=O)NCc2ccccc2Cl)c(=O)c2ccccc21
3%	COc1cccc(CNC(=O)CCC(=O)N2CC(C)Sc3ccccc32)c1 (centres undefined)
4%	Cc1ccc(S(=O)(=O)N2CCc3cc(C(=O)Nc4c(C)cccc4C(C)C)ccc32)cc1
17%	Cc1ccc(-c2nnc(Nc3cccc(O)c3)c3ccccc23)cc1S(=O)(=O)NCC1CCCO1 (centres undefined)
-1%	CCOC(=O)C(C)NC(=O)c1c2c(nc3ccccc13)C(=O)N(C1CCCCC1)C2 (centres undefined)
8%	CCN(CC)c1ccc(C(=O)NCc2ccc3c(c2)CCN3C(=O)c2ccc(F)cc2)cc1
3%	CCOC(=O)c1ccccc1NC(=O)Cn1nnc2sc3c(c2c1=O)CCCC3

Continuation:
miR-21 reporter	canonical_smiles
-14%	O=C(Cn1c(=O)oc2cc(S(=O)(=O)N3CCCCC3)ccc21)Nc1cccc(Cl)c1
26%	COc1ccc(NC(=O)c2oc3ccc(S(=O)(=O)N4CCCCC4)cc3c2C)cc1
3%	CN(Cc1ccc(F)cc1)S(=O)(=O)c1nnc(NC(=O)c2ccccc2Cl)s1
-3%	O=C(c1cc2ccc3cccnc3c2[nH]1)N1CCN(c2ccc(Cl)cc2)CC1
-15%	CCOc1ccc(-c2cc3nc(C4CCN(C(=O)OC(C)(C)C)CC4)c(C(=O)Nc4cccc(CC)c4)cn3n2)cc1
-14%	COc1cc2ccccc2cc1C(=O)Nc1ccc(Cl)c(-c2nc3ccccc3o2)c1
-4%	COc1cc(OC)cc(-c2nc3nc(C)c(CCC(=O)Nc4ccccc4)c(C)n3n2)c1
-26%	CC(=O)N1CCc2cc(CNS(=O)(=O)c3ccccc3C(F)(F)F)ccc21
-4%	Nc1c(C(=O)Nc2ccccc2Cl)c2ccccn2c1C(=O)c1ccc(Cl)cc1
10%	Cc1ccc(S(=O)(=O)c2cn(C)c3cc(N4CCCC(C)C4)c(F)cc3c2=O)c(C)c1 (centres undefined)
1%	Cc1cc(C)c2c(=O)cc(C(=O)Nc3sc4c(c3C(=O)NCC3CCCO3)CCCC4)oc2c1 (centres undefined)
-1%	COC(=O)c1ccccc1NC(=O)Cn1c(=O)n(CCC(=O)NCc2ccccc2OC)c(=O)c2ccccc21
-19%	CCOc1ccc(S(=O)(=O)c2cn(C)c3ccccc3c2=O)cc1
16%	COc1ccc(CCNC(=O)C(=O)NCC(c2ccc3c(c2)OCO3)N2CCOCC2)cc1 (centres undefined)
0%	Cc1cccc(NC(=O)c2ccc3oc(=O)c(S(=O)(=O)c4ccc(F)cc4)cc3c2)c1C
-2%	Cc1ccc(-n2nc(C)c(C(=O)O)c2-n2cccc2)cc1
-23%	Cc1ccc(-n2nc3ccc(NC(=O)c4oc5ccccc5c4C)cc3n2)cc1
-4%	COc1ccccc1C(=O)Nc1ccc(OCc2cc(=O)n3cccc(C)c3n2)cc1
-6%	CCc1nc2cccnc2n1-c1ccc(CC(=O)Nc2ccc(C)cc2)cc1
7%	Cc1c(Cl)cccc1NC(=O)CSc1nc(=O)[nH]c2c1CCC2
-13%	CCOC(=O)c1cccc(NC(=O)CSc2cc(=O)n(C)c3ccccc23)c1
0%	CC(C)(C)c1ccc(OCc2cc(=O)n3c4c(sc3n2)CCCC4)cc1
4%	Cc1cc2oc(C(=O)N(Cc3ccco3)Cc3ccccc3Cl)c(C)c2cc1C
0%	Cn1c(=O)c2c(nc(SCC(=O)Nc3ccc(F)c(F)c3)n2Cc2ccccc2F)n(C)c1=O
-46%	Cc1cc(N2CCN(C)CC2)nc2ccc(NC(=O)Nc3ccc(F)cc3F)cc12
-1%	Cc1ccc(Cn2c(SCC(=O)NCc3ccccc3)nc3ccsc3c2=O)cc1
-1%	CCOC(=O)c1sc2ncn(CC(=O)Nc3cccc(C)c3)c(=O)c2c1C
8%	COc1ccc(Cn2c(CCC(=O)Nc3ccc(Br)c(C)c3)nc3cccnc32)cc1
1%	Cc1cc(C)c2c(=O)cc(CSc3nnc(COc4ccccc4C)n3C)[nH]c2c1
-8%	O=C(CSCc1cnn(-c2ccccc2)c1-n1cccc1)NCc1ccccc1Br
1%	CCN(CC)CCNC(=O)CCn1c(=O)c2cccn2c2cccnc21
-22%	Cc1ccc(-n2ccnc(NCc3cccs3)c2=O)cc1C
-4%	CCCCNC(=O)CSc1nc2cc3c(cc2c(=O)n1CCCC(=O)NCc1ccc(OC)cc1)OCO3
?	CC(=O)N1CCc2cc(Br)cc(S(=O)(=O)CCC(=O)N3CCN(c4cccc(C)c4C)CC3)c21
5%	CCCCCn1c(=O)[nH]c2cc(C(=O)N3CCN(c4cc(Cl)ccc4C)CC3)ccc2c1=O
10%	Cc1ccc(Nc2c(-c3ccc(C)cc3)nc3cnccn23)cc1
0%	Cc1ccccc1NC(=O)CSc1nc(=O)n(CCN2CCOCC2)c2c1CCC2
